HIV TAR-Tat: HIV-1 TAR-Tat binding disruption. HIV-1 TAR RNA, Tat peptide displacement FRET; hits give high values. hit rate 0.6% among 100,000. z-score (concentration not given with the values);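 note: score is relative to mean and SD of negative controls; some compounds called inactive have numbers as strong as hits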
CDC25B CDK2 inh: human CDC25B-CDK2/CyclinA binding inhibition. P30305+P24941. HTRF CDC25B-CDK2/CyclinA binding, anti-His/anti-Flag; hits give high values. z-score (concentration not given with the values). hit rate 0.72% among 94,000. AID 1259370;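 note: score is relative to mean and SD of negative controls; strong numbers were not always called active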
Starred values were filed as active, the others as inactive; / = no result given.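 Rule for the calls: active = z-score from 3 up in half or more of its runs; inactive = the rest.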

A first look:
SMILES	HIV TAR-Tat	CDC25B CDK2 inh
CC(C)c1nc2sc3c(NCCCO)ncnc3c2c2c1CCCC2	-2.3	0
CC1=C(C(=O)OCC(C)C)C(c2ccc(C)s2)C2=C(CC(C)(C)CC2=O)N1 (stereo unspecified)	1.5	-4.2

This part in full, previewed entries included:
SMILES	HIV TAR-Tat	CDC25B CDK2 inh
CC(C)c1nc2sc3c(NCCCO)ncnc3c2c2c1CCCC2	-2.3	0
CC1=C(C(=O)OCC(C)C)C(c2ccc(C)s2)C2=C(CC(C)(C)CC2=O)N1 (stereo unspecified)	1.5	-4.2
CCCn1c(C)ccc(-c2noc(CCCC(=O)N(C)C)n2)c1=O	0.27	-1.7
O=C1CCCC2=C1C(c1ccccc1)CS2 (stereo unspecified)	/	-0.87
N#CCCn1nccc1-c1ccccc1O	/	-2.1
CC(=O)Nc1cc(NC(C)=O)[nH]n1	0.48	-0.61
CN1C(=O)C(C(=O)NC(C)(C)C)C2CC1(C)Oc1ccccc12 (stereo unspecified)	/	0.29
C=CCNc1cc(-c2ccccc2)nc2nc3ccccc3n12	0.78	0.57

Later entries
SMILES	HIV TAR-Tat	CDC25B CDK2 inh
COc1ccc(C(=O)C=C(C)C)c(O)c1O	/	-2.4
Cc1ccc2ncc3c(-c4ccccc4)n[nH]c3c2c1	1.1	-3.1
Nc1[nH]nc2nc(-c3ccccc3)c3c(c12)CCC3	-0.14	-2.6
CSc1ccc(-c2nc3c[n+](CC(N)=O)ccn3c2Nc2c(C)cccc2C)cc1	-0.01	-0.88
CSCCC(NC(=O)c1ccc(C(F)(F)F)cc1)c1n[nH]c(=S)n1C (stereo unspecified)	/	-2.2
O=C1CCCC2=C1C(c1ccc(O)cc1)Nc1ccc(C(=O)c3ccccc3)cc1N2 (stereo unspecified)	1.4	-0.33
O=S(=O)(Nc1ccccc1N1CCOCC1)c1ccc2c(c1)OCC2	/	1.4
O=C(CC(=O)c1ccccc1O)c1ccccc1	1.2	-0.98

Continued.
SMILES	HIV TAR-Tat	CDC25B CDK2 inh
CCOc1ccc(-n2c(=O)[nH]c3sc4c(c3c2=O)CCCC4)cc1	/	-0.56
O=C(c1noc2c1CCCCC2)N1CCN(c2ccc(Cl)cc2)CC1	-0.89	/
CCOc1ccc(C2C3=C(Nc4nc(N)[nH]c(=O)c42)c2ccccc2C3=O)cc1 (stereo unspecified)	2.4	14*
CCOc1ccccc1Nc1ncnc2c1nc1n2CCCC1	0.93	/
Cc1ccc(-c2onc(C)c2C)cc1S(=O)(=O)Nc1ccc(F)c(Cl)c1	1.6	/
COc1ccc(O)c(C2=NN3C(C2)c2cc(Cl)ccc2OC3c2ccsc2)c1 (stereo unspecified)	-0.64	-0.09
CC1CC(C)CN(C(=O)Cn2c(=O)n(CCCC(=O)NCc3ccco3)c(=O)c3sccc32)C1 (stereo unspecified)	0.26	0.29
CC(=O)Nc1ccc(C(C)C)cc1Br	/	-0.25

The list goes on:
SMILES	HIV TAR-Tat	CDC25B CDK2 inh
CCCc1nn(C)c(C(N)=O)c1[N+](=O)[O-]	1.5	-0.58
O=C(Nc1ccc(F)cc1)C1=Cc2cc(Br)ccc2OC=C1	1.4	-0.92
COc1cccc(-c2noc(N3CCC(N4CCCCC4)CC3)n2)c1	-0.1	/
O=C(NC1CC1)C1CCN(c2ccc(-c3cccs3)nn2)CC1	0.81	/
CC(NC(=O)c1ccc2c(=O)n3c(nc2c1)CCCC3)c1ccc2c(c1)OCCO2 (stereo unspecified)	1.4	/
COc1cc(OC)c(N(C)C(=O)c2nn(C)c3c2CSc2ccccc2-3)cc1Cl	1	0.06
O=S1(=O)C[C@H](N2CCN(Cc3ccccc3)CC2)[C@@H](S(=O)(=O)c2ccc(Cl)cc2)C1	1.8	-0.85
COc1cc2c(cc1OC)-c1nnc(C)n1C(C)(C)C2	0.52	-0.74

Next part
SMILES	HIV TAR-Tat	CDC25B CDK2 inh
O=C1CCCC2=C1C(c1ccc(O)c(Cl)c1)C1=C(CCCC1=O)N2	-0.63	-2.2
O=S1(=O)CC(c2ccccc2)CS(=O)(=O)C1	/	-1.2
CCOC(=O)c1nnsc1Nc1ccc(F)cc1	0.26	/
CSc1ccc(C2Nc3ccc(C)cc3-c3cc(C)nn32)cc1 (stereo unspecified)	1.4	0.03
CC(=O)O[C@@H]1CC2C(C)(C)C(=O)[C@@H]3O[C@@H]3[C@]2(C)C2CC[C@]3(C)C(=CC(=O)O[C@H]3c3ccoc3)[C@@]21C (stereo partly specified)	1.9	/
Cc1ccc(N2C(=O)C3Sc4[nH]c(=O)sc4C(c4ccccc4)C3C2=O)cc1 (stereo unspecified)	/	-1.5
Fc1cccc(Cl)c1Cn1c(C2CCCO2)nc2ccccc21 (stereo unspecified)	0.9	-1.1
CSc1cccc(NC(=O)Nc2nc3ccccc3s2)c1	0.32	-1.6

Record cards (already shown). Order of values: HIV TAR-Tat, CDC25B CDK2 inh
CCOC(=O)c1nnsc1Nc1ccc(F)cc1 reads 0.26, /
Fc1cccc(Cl)c1Cn1c(C2CCCO2)nc2ccccc21 (stereo unspecified) reads 0.9, -1.1
O=C1CCCC2=C1C(c1ccc(O)c(Cl)c1)C1=C(CCCC1=O)N2 reads -0.63, -2.2
Cc1ccc(N2C(=O)C3Sc4[nH]c(=O)sc4C(c4ccccc4)C3C2=O)cc1 (stereo unspecified) reads /, -1.5
CC(=O)O[C@@H]1CC2C(C)(C)C(=O)[C@@H]3O[C@@H]3[C@]2(C)C2CC[C@]3(C)C(=CC(=O)O[C@H]3c3ccoc3)[C@@]21C (stereo partly specified) reads 1.9, /

Further results:
SMILES	HIV TAR-Tat	CDC25B CDK2 inh
COc1cccc(-n2c(N)c(C(N)=O)sc2=S)c1	-0.57	/
Cc1ccc(Nc2cc(C)nc3nncn23)c(C)c1	-0.17	-2
CCCCNC(=O)CN1C(=O)CCn2nc(C)cc21	-0.17	/
Cn1cc(Br)c(NC(=O)/C=C\C(=O)O)n1	/	0.5
CCOc1ccc(NC(=O)C2=C(C)C(=O)OC23CCC(C)CC3)cc1 (stereo unspecified)	-0.14	0.88
CN(CCCNC(=O)c1csc2c1CCCCC2)C1CCCCC1	-0.24	-2.3
c1ccc2c(c1)ncn2Cc1nnc2sc(-c3ccc4c(c3)OCO4)nn12	0.92	-1.6
CCCSc1nnc(NC(=O)c2nn(-c3ccc(OCC)cc3)ccc2=O)s1	-0.66	-0.88

Continuation:
SMILES	HIV TAR-Tat	CDC25B CDK2 inh
Fc1ccc(-c2cc(C(F)(F)F)nc(-n3cccn3)n2)cc1	0.7	0.59
CC1=C(C(=O)OC(C)C)C(c2cc(F)cc(F)c2)n2c(nc3ccccc32)N1 (stereo unspecified)	2	-1.3
O=C(NCc1ccco1)c1ccc2nc3ccccc3c(=O)n2c1	1.3	/
CCOC(=O)c1sc(-n2[nH]c(C)c(CCC(C)C)c2=O)nc1C	0.1	-1.1
CCCCSc1nn2c(=O)c(Cc3ccccc3)nnc2s1	2.6	-0.81
COc1ccccc1-c1nnc2sc(-c3ccccn3)nn12	0.03	-1.2
O=c1[nH]c2ccc(NCc3ccccn3)cc2[nH]1	-6.5	13*
Cn1nc(C(=O)NCc2ccccn2)c2c1-c1ccccc1SC2	2.2	-1.9

Next part:
SMILES	HIV TAR-Tat	CDC25B CDK2 inh
Cc1ccc(S(=O)(=O)Nc2ccccc2-c2nc3ccccc3c(=O)o2)cc1	/	-1.5
Cc1cc(C)n(CC(=O)NC2CCCCC2)n1	-0.07	0.03
Cc1ccc(C2NC(Cc3ccccc3)(C(=O)O)C3C(=O)N(c4ccc(F)cc4)C(=O)C23)cc1 (stereo unspecified)	1.9	-1.6
Nc1nnc(SCC(=O)N2CCN(S(=O)(=O)c3ccccc3)C2)s1	1	-1.2
Cc1cc(NS(=O)(=O)c2ccc(Nc3nc(-c4sc(N)nc4C)cs3)cc2)no1	/	2.7
CCc1nn2c(=O)cc(CSc3nnc(COc4ccccc4C)n3C)nc2s1	-0.07	/
CCc1ccc(-n2nnc3c(=O)[nH]cnc32)cc1	2.9	-1.2
CCCc1nn2c(=O)cc(COc3cccc(C)c3C)nc2s1	-0.51	-2.6

Next part.
Values run as follows: HIV TAR-Tat, CDC25B CDK2 inh
> C[C@H]1[C@H](C)CC[C@]2(C(=O)O)CC[C@]3(C)C(=CC[C@@H]4[C@@]5(C)C[C@@H](O)[C@H](O)[C@@](C)(CO)[C@@H]5[C@H](O)C[C@]43C)[C@H]12
 : 0.45, /
> O=c1oc(-c2cccc(Br)c2)nc2ccc(O)cc12
 : 0.05, 0.23
> C=CCN1C(=O)C2(c3ccccc31)c1c(oc3ccccc3c1=O)C(=O)N2CCCOC (stereo unspecified)
 : 1.5, -1.7
> Cc1nc(N(C)C)cc(N2CCN(S(=O)(=O)c3ccccc3F)CC2)n1
 : 0.43, 0.99
> CC1Cc2cc(S(=O)(=O)CCC(=O)N3CCc4ccccc43)ccc2N1C(=O)C1CC1 (stereo unspecified)
 : -0.45, /
> c1ccc(CN2CCC(Nc3nn4nnnc4c4ccccc34)CC2)cc1
 : -0.47, /
> CC1CCCC(NC(=O)C2(C)Cn3c(cc4sccc43)C(=O)N2C2CCCC2)C1C (stereo unspecified)
 : 2.3, -0.91
> Cc1ccc(O)c(-c2n[nH]c3c2C(c2cccc(O)c2)N(Cc2ccco2)C3=O)c1 (stereo unspecified)
 : -0.52, -1.5
> Cc1cc(C(=O)Nc2cc(-c3ccccc3)nn2C)no1
 : /, -3.5
> Cn1c(=O)c2[nH]c(N3CCN(c4ccccc4)CC3)nc2n(C)c1=O
 : /, 0.29
> CCOC(=O)c1c(C)[nH]c(C)c1S(=O)(=O)Nc1cc(OC)cc(OC)c1
 : 0.88, /
> O=C(Nc1nnc(S(=O)(=O)N2CCc3ccccc32)s1)C1CCCCC1
 : 0.3, -1.6
> CN(CCCNc1nc(-c2ccccc2F)no1)c1ccccc1
 : 1.8, /
> CCCn1cc(S(=O)(=O)c2ccc(C)cc2)c(=O)c2cc(C)ccc21
 : 1.1, 0.33
> CC(C)c1cc(C2CCCN2C(=O)c2ccc(F)cc2)no1 (stereo unspecified)
 : 0.8, /
> CCCCSc1nc2n(n1)C(c1ccccc1)C1=C(CC(C)(C)CC1=O)N2 (stereo unspecified)
 : -0.61, -0.17
> COc1ccc(-c2[nH]nc3c2C(c2cccs2)C2=C(CC(C)(C)CC2=O)N3)cc1 (stereo unspecified)
 : -1.3, 0.66
> COc1ccc(Nc2ncnc3onc(C)c23)cc1OC
 : -0.74, /
> O=C(O)CS(=O)(=O)CS(=O)(=O)CC(=O)O
 : /, -1.9
> Cc1cc(C)cc(N2C(=O)N(Cc3ccc(F)cc3)C3CS(=O)(=O)CC32)c1 (stereo unspecified)
 : 0.33, /

(listing goes on)
Values run as follows: HIV TAR-Tat, CDC25B CDK2 inh
> CC(C)CNS(=O)(=O)c1cc2c3c(c1)CC(=O)N3CCC2
 : 1.2, /
> CCCCN(CC)S(=O)(=O)c1csc(C(N)=O)c1
 : 0.8, /
> CCn1nc(-n2cnnc2)c(NS(=O)(=O)c2cc(C)cc(C)c2C)c1C
 : -0.84, -1
> Cc1cn2c(=O)cc(COC(=O)c3ccccc3Br)nc2s1
 : 0, /
> COCCOC(=O)C1=C(C)NC2=C(C(=O)CC(C)(C)C2)C1c1ccccc1Cl (stereo unspecified)
 : -0.38, -0.78
> CC1=CCC2C(=O)N(c3ccc(F)cc3F)C(=O)C2C1 (stereo unspecified)
 : /, -0.35
> CCn1c(NCc2ccco2)nc2ccccc21
 : 1.1, -1.7
> c1cncc(CSc2nc3ncccc3o2)c1
 : -1.7, /
> CCN1C(C(=O)OC)=C(OC(=O)c2ccco2)c2ccccc2S1(=O)=O
 : 1.3, -1.3
> CCc1nn(CC(=O)NC2CCCC2)c(=O)c2cccn12
 : 2, -2.1
> CS(=O)(=O)N1CCC(C(=O)Nc2cnc3ccccc3c2)CC1
 : 2.1, -1.6
> CCSc1nc2c([nH]c3ccccc32)c(=O)n1CC
 : 2.2, /
> O=c1cc(Nc2ccc3c4c(cccc24)CC3)[nH]c(=O)[nH]1
 : /, -2.5
> Cc1cc(C)cc(NS(=O)(=O)c2ccc(/C=C/c3onc(C)c3[N+](=O)[O-])cc2)c1
 : 0.74, /
> O=C(CN1C(=O)c2cccnc2Oc2ccc(Cl)cc21)NCCc1c[nH]c2ccccc12
 : -0.39, /
> CCCCNC(=O)c1cc(C2CC2)on1
 : -0.33, -2.5
> Cc1cccc(N2CCN(c3cc(-n4nc(C)cc4C)ncn3)CC2C)c1 (stereo unspecified)
 : -0.19, /
> CNC(=O)c1c(NC(=O)c2ccc(Oc3ccccc3)cc2)sc2c1CCC2
 : -1.4, /
> O=C(NCCN1CCN(c2ccccc2)CC1)Nc1cccc(Br)c1
 : 0.4, -2
> Cc1nc2ccccc2n1CCc1nc2c3ccccc3nc(NCc3ccccn3)n2n1
 : -1.8, -1

(next part)
Values run as follows: HIV TAR-Tat, CDC25B CDK2 inh
> NCCCNc1ncc(C(F)(F)F)cc1Cl
 : /, -1.3
> O=c1cc(-c2ccccc2Cl)oc2ccc(Cl)cc12
 : 1.4, -1.6
> CS(=O)(=O)n1nc(-c2ccco2)nc1NCc1ccccc1Cl
 : 0.71, -1.4
> COC(=O)c1ccc(COc2ccc3ccccc3c2)o1
 : 0.96, -0.45
> CCCC(CCC)C(=O)NCCc1cc2cc(C)c(C)cc2[nH]c1=O
 : /, -0.37
> CCC(C)S(=O)(=O)c1oc(-c2ccc(F)cc2)nc1S(=O)(=O)c1ccc(F)cc1 (stereo unspecified)
 : 1.8, -3.1
> Cc1ccc(C)c(S(=O)(=O)c2cn(C)c3cc(F)c(F)cc3c2=O)c1
 : 1.6, -2.4
> CC(C)n1c(CCCO)nc2ccccc21
 : 0.83, 1.2
> COC(=O)/C(C#N)=C/c1[nH]c(C)cc1C
 : /, -0.4
> O=C1CCCc2cc(S(=O)(=O)NCCN3CCCC3)ccc2N1
 : 0.26, /
> COc1cccc(C=NCCCC2C=NNC2=O)c1O (stereo unspecified)
 : /, -1
> COC(=O)C1=C(C)NC2=C(C(=O)CC(C)(C)C2)C1c1cccc(F)c1 (stereo unspecified)
 : 1.6, -1.3
> CC(c1ccccc1)N1C(=O)CSC1=S (stereo unspecified)
 : /, 1
> O=C(Nc1nc(-c2cc3ccccc3oc2=O)cs1)c1c(F)cccc1F
 : /, -1.3
